Screening results: PubChem BioAssay, Vanderbilt University
GIRK2 activ: activators of human GIRK2 potassium channels. P48051. HEK293-GIRK2 thallium flux, Thallos fluorescence. calls only for hits at 25 µM. 0.05% of 63,000 active;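 active means among the strongest 0.2% of first-round signals and kept after retests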;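 further: first round at about 10 µM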
Target sequence (P48051 whole entry, looked up): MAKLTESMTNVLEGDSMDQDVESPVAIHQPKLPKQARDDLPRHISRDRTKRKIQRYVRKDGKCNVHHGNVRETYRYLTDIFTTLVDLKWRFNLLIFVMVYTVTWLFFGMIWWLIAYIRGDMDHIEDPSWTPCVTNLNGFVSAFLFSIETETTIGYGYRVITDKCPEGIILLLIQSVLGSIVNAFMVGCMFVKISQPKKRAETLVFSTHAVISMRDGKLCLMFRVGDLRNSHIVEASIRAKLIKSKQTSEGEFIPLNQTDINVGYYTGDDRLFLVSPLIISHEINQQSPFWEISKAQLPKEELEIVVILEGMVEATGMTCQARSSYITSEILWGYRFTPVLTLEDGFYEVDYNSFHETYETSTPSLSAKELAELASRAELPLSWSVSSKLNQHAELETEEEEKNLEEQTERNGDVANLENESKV
Calls only; i = inactive. These rows are one share of the data; rates above refer to the full screens.

A first look, 6 compounds:
GIRK2 activ,Structure
i,CC(=O)c1ccc(OCC(=O)Nc2cc(N3CCN(Cc4ccccc4)CC3)ncn2)cc1
i,Nc1nc(NC2CCS(=O)(=O)C2)ncc1[N+](=O)[O-] (centres undefined)
i,COc1ccc(NC(=O)CSc2nccnc2N2CCC(Cc3ccccc3)CC2)c(OC)c1
i,CC(=O)N1CCN(S(=O)(=O)c2cccc(C(=O)N3CCc4ccccc43)c2)CC1
i,Cc1cc(C)c(NC(=O)Cn2nc3ccc(Sc4cccc(F)c4)nn3c2=O)c(C)c1
i,O=C(c1ccc2nsnc2c1)N1CCN(C(=O)C2CC2c2cccs2)CC1 (centres undefined)

Main list, from the start:
GIRK2 activ,Structure
i,CC(=O)c1ccc(OCC(=O)Nc2cc(N3CCN(Cc4ccccc4)CC3)ncn2)cc1
i,Nc1nc(NC2CCS(=O)(=O)C2)ncc1[N+](=O)[O-] (centres undefined)
i,COc1ccc(NC(=O)CSc2nccnc2N2CCC(Cc3ccccc3)CC2)c(OC)c1
i,CC(=O)N1CCN(S(=O)(=O)c2cccc(C(=O)N3CCc4ccccc43)c2)CC1
i,Cc1cc(C)c(NC(=O)Cn2nc3ccc(Sc4cccc(F)c4)nn3c2=O)c(C)c1
i,O=C(c1ccc2nsnc2c1)N1CCN(C(=O)C2CC2c2cccs2)CC1 (centres undefined)
i,Cc1nc(C)c(C(=O)C2=C(O)C(=O)N(CCCN(C)C)C2c2cccs2)s1 (centres undefined)
i,O=C(NCCCS(=O)(=O)N1CCN(c2ccccc2F)CC1)c1cc2ccccc2o1
i,CCn1c(SCC(=O)Nc2ccc3c(c2)OCCO3)nc2sc3c(c2c1=O)CCC3
i,Cc1cccc(OCCCn2c(CO)nc3ccccc32)c1C
i,CCC(=O)Oc1ccc2c(=O)c(-c3ccc(Br)cc3)c(C)oc2c1
i,COc1ccc(Br)c(C(=O)NCc2ccsc2)c1
i,O=c1c(-c2nc(-c3cnccn3)no2)cccn1Cc1ccccc1Cl
i,CCn1c(=O)c2c(nc3n(-c4ccc(OC)cc4)c(-c4ccccc4)cn23)n(C)c1=O
i,NC(=O)c1ccccc1NC(=O)c1csc(-n2cccc2)n1
i,CC(C)CC(C(=O)O)N1C(=O)C2C3C=CC(C3)C2C1=O (centres undefined)
i,O=C(NCC1(CO)CC1)c1ccccc1Cl
i,O=C(c1ccsc1)N(Cc1ccoc1)Cc1cccs1
i,COCCNC(=O)NC1(c2nc(-c3ccncc3)no2)CCCCC1
i,CCOc1ccc(C(=O)Nc2sc3c(c2-c2nc4ccccc4s2)CCN(C)C3)cc1
i,COc1cc(C)c(C)cc1S(=O)(=O)NC1CC(C)(C)NC(C)(C)C1
i,CC(=O)N1CCN(C(=O)c2cnc3c(c(C)nn3-c3ccccc3)c2Cl)CC1
i,CC(C)(C)NC(=O)N1CCCC(c2nnc(-c3cccs3)o2)C1 (centres undefined)
i,COc1ccc(Cl)cc1NC(=O)NCC(C)(O)c1ccco1 (centres undefined)
i,C=CCNC(=O)Nc1cccc(-c2nc3ccccc3s2)c1

Looked up by compound from the list above, 2 records:
GIRK2 activ,Structure
i,O=c1c(-c2nc(-c3cnccn3)no2)cccn1Cc1ccccc1Cl
i,Nc1nc(NC2CCS(=O)(=O)C2)ncc1[N+](=O)[O-] (centres undefined)

(continued)
GIRK2 activ,Structure
i,O=C(Nc1cc(-c2cccs2)nn1-c1nc(-c2ccccc2)cc(=O)[nH]1)c1ccc2c(c1)OCO2
i,CCOC(=O)Cn1nc(-c2ccccc2)ccc1=O
i,COc1cccc(C2C(C(=O)c3sc(C)nc3C)=C(O)C(=O)N2CCN(C)C)c1OC (centres undefined)
i,COC(=O)c1c(-c2ccc(OC)cc2)csc1N
i,O=C(Nc1ccc2c(c1)OCO2)C1COCC(=O)N1Cc1ccccc1 (centres undefined)
i,CCCCC(=O)Nc1ccccc1
i,O=C(c1ccco1)N(CCCn1ccnc1)c1nc2ccc(Cl)cc2s1
i,O=C(CCCS(=O)(=O)c1ccc(F)cc1)N1CC(Oc2nc3ccccc3s2)C1
i,CO[C@@]12CC3[C@@H]([C@@H](O)[C@@H](OC(C)=O)C4[C@](C)(COC(C)=O)CCC[C@]34C)[C@@H](C)C1=CC(=O)O2 (some centres undefined)
i,Cc1ccc(C(C)C)c(OCC(O)CNCc2ccco2)c1 (centres undefined)
i,NC(=O)C1COCC(=O)N1Cc1ccccc1 (centres undefined)
i,O=C(CN1CCN(c2ccc(F)cc2)C1=O)N1CCN(C2CCCCC2)CC1
i,Cc1nc(C(=O)N2CCC(c3nnc(-c4ccc(F)cc4)o3)CC2)cs1
i,CN1CCc2c(OCC(=O)NC3CCCCC3)cccc2C1=O
i,COc1ccccc1N1CCN(Cc2cc(=O)oc3ccc(O)cc23)CC1
i,O=S(=O)(c1ccccc1F)N1CCC(Oc2ccccn2)CC1
i,Cc1cc(N2C(=O)CCS2(=O)=O)ccc1S(=O)(=O)NCc1ccccc1
i,O=C(CSc1ncc(CO)n1Cc1ccc(F)cc1)N1CCCCC1
i,O=C(c1ccsc1)N1CCC(c2nnc(C3CC3)o2)CC1
i,CCCCS(=O)(=O)Nc1cnc(N2CCN(c3ccccn3)CC2)nc1
i,Cc1ccccc1CS(=O)(=O)Cc1ccc(C(=O)NCc2ccccc2Cl)o1
i,CC(C)c1nccn1CC1CCN(C(=O)c2cncc(Br)c2)CC1
i,O=C(CSc1nnc(-c2ccc(Cl)cc2)c2ccccc12)N1CCOCC1
i,O=C(/C=C/c1ccc(O)c(O)c1)O[C@@H]1[C@H](O)C[C@@](O)(C(=O)O)C[C@H]1OC(=O)/C=C/c1ccc(O)c(O)c1
i,COc1ccc(-c2ccc(SCc3cc(=O)n4cc(Cl)ccc4n3)nn2)cc1OC

(next part)
GIRK2 activ,Structure
i,COC(=O)c1ccc(NC(=O)c2ccc(S(=O)(=O)N(Cc3ccco3)C3CC3)o2)cc1
i,COc1cc(NC(=O)Cn2cnc3c(-c4ccc(Cl)cc4)csc3c2=O)cc(OC)c1OC
i,CC(C)(Oc1ccc(Cl)cc1)C(=O)Nc1ccc(Nc2cc(-n3cccn3)ncn2)cc1
i,CCN(CCCNC(=O)Cn1cnc2c([nH]c3ccccc32)c1=O)c1cccc(C)c1
i,COc1cc(NC(=O)CCc2csc(NC(=O)c3cccs3)n2)cc(OC)c1OC
i,COc1ccccc1-n1cnnc1CN1CCN(CC(=O)Nc2ccccc2Cl)CC1
i,Cc1ccccc1NC(=O)NCc1cc(-c2ccncc2)n(C)n1
i,O=C(NCc1nn(C2CCCC2)c(=O)c2ccccc12)c1c(F)cccc1Cl
i,CN1c2ccc(F)cc2C(=O)NC12CCN(C(=O)c1ccc(F)c(Cl)c1)CC2
i,Cc1cc(-c2nnc(NC(=O)CC3CCCC3)o2)c(C)o1
i,CC(C)(C)C(=O)NCCNc1cc(-n2cccc2)ncn1
i,CC1(C)Cc2cccc(OCC(=O)NCC3CCN(C(=O)Nc4ccc(F)cc4)CC3)c2O1
i,CCOc1ccc(C(=O)Nc2cc(-c3cccs3)nn2-c2nc(C)cc(=O)[nH]2)cc1
i,O=C(CCc1nnc2n(Cc3ccc(Cl)cc3)c(=O)c3ccccc3n12)Nc1ccc(F)c(F)c1
i,Cc1ccc(NC(=O)Cn2nc3c(N4CC(C)CC(C)C4)nccn3c2=O)cc1F (centres undefined)
i,O=C(NCCC1=CCCCC1)C(=O)NCC1(O)CCOc2ccccc21 (centres undefined)
i,Cc1nc(C)c(-c2ccc(=O)n(CCNC(=O)CCS(=O)(=O)c3ccccc3)n2)s1
i,COc1cccc(-c2cc(C(=O)Nc3ccc4sc(C)nc4c3)n(C)n2)c1
i,CCOc1ccc(CC(=O)Nc2ccc(-n3nnc(C(=O)NC4CCCC4)n3)cc2)cc1
i,O=C(NCCC(O)c1ccc2c(c1)OCO2)c1cc(-c2ccccc2)on1 (centres undefined)
i,COc1cc(CNC(=O)C2CN(C(=O)c3ccc(F)c(F)c3)C2)cc(OC)c1OC
i,COc1ccccc1C(=O)COC(=O)CCN1C(=O)c2ccccc2C1=O
i,Cc1ccc(Cl)cc1N1CCN(CC(O)COCC2CC3CCC2C3)CC1 (centres undefined)
i,Fc1cccc(-c2noc(Cc3nc(-c4ccccc4Cl)cs3)n2)c1
i,CCC1=C(C(=O)OC)C(c2ccc(Cl)cc2)n2ncnc2N1 (centres undefined)

The listing continues.
GIRK2 activ,Structure
i,O=C(c1ccc2c(c1)OCO2)N1CCN(c2cc(-c3ccccc3)ncn2)CC1
i,O=C(Cn1nnn(-c2ccc(NS(=O)(=O)Cc3cccc(F)c3)cc2)c1=O)NC1CC1
i,O=c1c2cc(-c3cccs3)nn2cnn1Cc1nc(-c2ccc(OC(F)(F)F)cc2)no1
i,COC(=O)c1ccc(NC(=O)c2csc(-n3cccc3)n2)cc1
i,COc1ccc(Cl)cc1C(=O)N1CCC(C(=O)NCc2nc(C)no2)CC1
i,CCOc1ccc(-c2cc(=O)n(CCCC(=O)Nc3ccccc3C(F)(F)F)cn2)cc1
i,O=C(Nc1ccccc1F)c1cccc(S(=O)(=O)N2CCOCC2)c1
i,CCOC(=O)N1CCN(C(=O)c2cn(C)nc2C)CC1
i,C=CCn1c(=O)c2c(nc3n(-c4ccc(OCC)cc4)c(C)cn23)n(C)c1=O
i,CCN1CCc2c(sc(NC(=O)c3cc(C)no3)c2-c2nc3ccccc3s2)C1
i,O=C1Cc2cc(NC(=O)C3(c4ccccc4)CCOCC3)ccc2N1
i,CC(NC(=O)C(=O)NCCCn1ccnc1-c1ccccc1)c1ccccc1 (centres undefined)
i,Cn1c(=O)[nH]c(=O)c2c1nc(N1CCCC1)n2CC(=O)c1ccccc1
i,O=C(Cn1cccc(-c2nc(-c3ccc(Cl)cc3)no2)c1=O)NC1CCCC1
i,COc1ccc(Cc2nnc(NC(=O)Nc3ccccc3F)o2)cc1
i,Cc1nc(NC(=O)c2csc(-c3cc4ccccc4[nH]3)n2)sc1C(=O)N(C)C
i,COC(=O)N1CCc2ccc(F)cc2C1C(=O)NC12CC3CC(CC(C3)C1)C2 (centres undefined)
i,COCCOC(=O)c1c(C)oc2ccc(OC(=O)c3ccc4c(c3)OCO4)cc12
i,Cc1ccc(NS(=O)(=O)N(C)C)cc1Cl
i,O=C(CCCc1ccccc1)NCc1n[nH]c(=O)c2ccccc12
i,O=S(=O)(Cc1ccccc1)Nc1cnc(N2CCOCC2)nc1
i,Cc1ccc(CN(c2ccc(F)c(F)c2)S(=O)(=O)c2cccn3cnnc23)cc1
i,Cc1ccc(-n2nc(C)c3c(Cl)c(C(=O)NCCN4CCOCC4)cnc32)cc1
i,Cc1ccc2c(NC(=O)c3cn(C)nn3)cccc2n1
i,COc1ccc(-c2ccc(=O)n(CCNS(=O)(=O)c3ccc(OC)c(OC)c3)n2)cc1

The list goes on, starting with the last 7 of the part before.
GIRK2 activ,Structure
i,Cc1ccc(NS(=O)(=O)N(C)C)cc1Cl
i,O=C(CCCc1ccccc1)NCc1n[nH]c(=O)c2ccccc12
i,O=S(=O)(Cc1ccccc1)Nc1cnc(N2CCOCC2)nc1
i,Cc1ccc(CN(c2ccc(F)c(F)c2)S(=O)(=O)c2cccn3cnnc23)cc1
i,Cc1ccc(-n2nc(C)c3c(Cl)c(C(=O)NCCN4CCOCC4)cnc32)cc1
i,Cc1ccc2c(NC(=O)c3cn(C)nn3)cccc2n1
i,COc1ccc(-c2ccc(=O)n(CCNS(=O)(=O)c3ccc(OC)c(OC)c3)n2)cc1
i,OC(CNC1CCCC1)COc1ccc(Br)cc1Br (centres undefined)
i,Cn1nc(CNS(=O)(=O)C2CCCCC2)cc1C1CC1
i,COc1ccc(OC)c(CNC(=O)c2nnn(-c3ccccc3F)c2-c2cccnc2)c1
i,COc1ccc(C2c3cccn3CCN2S(=O)(=O)c2ccc(F)cc2)cc1 (centres undefined)
i,COc1ccc(NC(=O)Cn2ccn(-c3ccccc3)c(=O)c2=O)c(OC)c1
i,Cc1cc(C)c(C)c(S(=O)(=O)NCc2ccc(C(=O)N3CC(C)OC(C)C3)cc2)c1C (centres undefined)
i,O=C(NC1CCN(C(=O)c2cn[nH]c2-c2ccc(Cl)cc2)CC1)c1ccco1
i,O=C(CCC1NC(=O)c2ccccc2NC1=O)Nc1ccc2c(c1)Cc1ccccc1-2 (centres undefined)
i,Cc1nnc(NC(=O)c2ccc(S(=O)(=O)N(Cc3ccco3)C3CC3)o2)s1
i,Cc1ccc(NC(=O)CSc2nccn2-c2ccc(C(=O)NCc3ccc(C)o3)cc2)c(Cl)c1
i,CCCCc1ccc(S(=O)(=O)c2cnc(SCC(=O)Nc3ccc(CC)cc3)[nH]c2=O)cc1
i,CN(C)C(CNC(=O)C(=O)NCCC1=CCCCC1)c1ccc2c(c1)CCO2 (centres undefined)
i,O=C(/C=C/c1ccnc2ccccc12)c1ccc(O)cc1
i,COCCN1COc2ccc3c(=O)c(-c4ccc(OC)cc4)c(C(F)(F)F)oc3c2C1
i,COCCNC(=O)Cc1ccc(NC(=O)c2cc(-c3ccccc3)on2)cc1
i,Cc1ccc(CCC(=O)Nc2nccs2)s1
i,CCOc1cc(O)cc2oc(-c3ccccc3)cc(=O)c12
i,CC1(C(=O)Nc2ccc3nccnc3c2)Cc2ccccc2C(=O)O1 (centres undefined)
i,O=C(c1cc2ccccc2o1)N1CCN(Cc2nnnn2-c2ccc(Cl)cc2)CC1
i,COc1cccc(-c2csc(-n3nc(C)cc3NC(=O)c3ccccc3Cl)n2)c1
i,Cc1nc(-c2cccs2)sc1CNC(=O)COc1cccc(C(F)(F)F)c1
i,COCCNC(=O)NCCn1nc(C(F)(F)F)n(C)c1=O
i,O=C(NCCOc1ccccc1)N1CCOC(c2cc(Cl)cc(Cl)c2)C1 (centres undefined)
i,O=C(Cn1c(=O)[nH]c2c(-c3ccccc3F)c[nH]c2c1=O)N1CCc2ccccc2C1
i,COc1ccc(NC(=O)c2c(S(=O)(=O)Nc3ccc(C)cc3)n[nH]c2C)cc1
i,CCOc1ccc(CCNC(=O)c2nnn(CC(=O)Nc3cc(C)cc(C)c3)c2N)cc1OCC
i,COCCCn1c(C(=O)N(C)C)cc2c(=O)n3ccccc3nc21
i,COC(=O)c1ccc(NC(=O)CSc2nccnc2N2CCSCC2)cc1

Sorted by number of heavy atoms (smallest number first): part of the list above
GIRK2 activ,Structure
i,O=C(NCCOc1ccccc1)N1CCOC(c2cc(Cl)cc(Cl)c2)C1 (centres undefined)
i,Cc1cc(C)c(C)c(S(=O)(=O)NCc2ccc(C(=O)N3CC(C)OC(C)C3)cc2)c1C (centres undefined)
i,COc1ccc(OC)c(CNC(=O)c2nnn(-c3ccccc3F)c2-c2cccnc2)c1
